# BJeLR lethal: BJeLR cell viability loss. AID 1554. BJeLR (HRASV12) viability, CellTiter-Glo ATP luminescence, 48 h; reference of the scale not given here. inhibition, % (concentration not given with the values). 300,000 tested, 0.17% active;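 active means replicate mean above 50%; inconclusive means above 50% but judged a plate artefact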;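 further: 50 nL library stock added to about 25 µL; numbers are from one replicate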
# PrP 5UTR inh: suppresses PrP 5' UTR mRNA reporter expression. cell-based PrP 5' UTR mRNA reporter, plate reader. inhibition, % (no concentration beside the values). 340,000 tested, 0.35% active. AID 488862;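 active means every replicate at 50% or more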;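 further: 0 = median of the neutral control wells; tested in H4 reporter cells; numbers are from one replicate; inactives centre near -14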
# Sa ugtP lethal: growth inhibition of S. aureus ugtP deletion strain; 330,000 tested, 0.54% active; growth inhibition, % (no concentration beside the values); S. aureus RN4220 ugtP deletion, OD600 growth, 16 h; some inactives read as strong as hits;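 active means z-score under -3 and OD600 up to 0.15 on both plates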;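 further: plate controls were untreated wells for no effect and antibiotic for full effect; wells of about 80 µL received 100 nL stock; the first replicate is given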
# Mtb hypoxia inh: Mtb hypoxia fluorescent reporter inhibition; M. tuberculosis hypoxia-regulated fluorescent reporter, fluorescence; 300,000 tested, 0.1% active; fluorescence inhibition, % (test concentration not listed);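 active means 35 to 45% if threefold the growth effect, above 45% if 1.5-fold the growth effect; inactive means the rest, general growth blockers included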;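 further: wells of about 50 µL received 100 nL stock; 0% = vehicle wells and 100% = reference inhibitor wells; whole bacteria with a GFP reporter of the hypoxia response; strong numbers were not always called active; many hits fall short of the cut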
# Sa RN4220 lethal: kills Staphylococcus aureus RN4220. S. aureus RN4220 growth, OD600, 16 h. inhibition, % (concentration not given with the values). 330,000 tested, 0.33% active. AID 1259311;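 active means z-score of -3 or lower and OD600 up to 0.18 on both plates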;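 further: plate controls were untreated cells for no effect and reference antibiotic for full effect; stock transfer was 100 nL into about 80 µL; one replicate is shown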
# Autofluor counter: flagged as autofluorescent in microsphere protease counterscreen | compound autofluorescence counterscreen, microsphere flow cytometry; stronger effect = higher value | fluorescence intensity (test concentration not listed) | 360,000 tested, 3.1% active | AID 624483;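 active means at least 3 SD above the mean of all compounds, about 16000 in these data; inconclusive means too few beads counted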;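 further: 100 nL of 1 mM stock went into each well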
# Mtb hypoxia inh growth: recorded beside Mtb hypoxia inh, whose call it bears; growth inhibition, %; measured here: M. tuberculosis growth (absorbance);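 0% = vehicle and 100% = reference antibiotic; read after six days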
# Starred values were filed as active, the others as inactive; ? = inconclusive; / = not tested or not shown; & = joins results of further samples.
canonical_smiles,Sa ugtP lethal,Mtb hypoxia inh,Autofluor counter,BJeLR lethal,Mtb hypoxia inh growth,Sa RN4220 lethal,PrP 5UTR inh
CN(C)C=Nc1c(C#N)cnn1-c1ccccc1,11,18,/,/,11,4.8,/
COc1cc(C(=O)N=c2sc3ccccc3n2C)cc(OC)c1OC,-7,0,4123,0,7,2.1,-38
Cc1ccc(NC(=O)c2cccc(S(=O)(=O)NCc3ccccc3)c2)nc1,/,/,?,-5,/,/,-27
O=C(NC1CCCc2ccccc21)c1c(F)cccc1Cl (configuration not stated),39,14,3526,9,6,11,-24
Cc1cc(-c2n[nH]c(=S)n2N=Cc2ccc(C)o2)n[nH]1,-1,0,/,/,3,-3.0,/
O=C(c1cc(-c2ccccn2)nc2ccccc12)N1CCN(c2ncccn2)CC1,1,10,3400,-17,0,5.5,-22
CC1=C(C#N)C(=O)OC(C)(C)C1,9,-8,2391,-4,12,11,-12
NC(=O)c1ccsc1NC(=O)Cc1ccc([N+](=O)[O-])cc1,6,3,3905,/,-5,5.7,-18
COc1ccc(C(=O)NCC(=O)N2CCN(c3ncccn3)CC2)cc1OC,3,9,3327,/,2,8.1,-22
COc1cccc(NC(=O)c2ccc(-n3cnnn3)cc2)c1,1,12,5980,-8,3,2.2,-17
CC(=NNC(=O)c1cccc(Br)c1)c1cccnc1,6,7,/,/,4,-0.5,/
O=C1C=CC(c2ccccc2)(c2ccccc2)CC1,3,9,3747,/,14,1.6,-16
COc1ccc(-c2cc(C(F)F)n3ncc(C(=O)Nc4cc(C)on4)c3n2)cc1,-1,2,2381,-7,2,3.7,-41
CCN(CC)CCn1c(SCC(=O)Nc2cccc(OC)c2)nc2c(sc3ccccc32)c1=O,19,5,3495,-13,-2,3.8,1
O=c1oc2ccccc2c(O)c1C(c1ccc([N+](=O)[O-])cc1)c1c(O)c2ccccc2oc1=O,0,4,2047,2,5,14,4
COc1ccc(NC(=O)CN(C)C(=O)c2oc3c(ccc4ccccc43)c2C)cc1,2,7,3890,/,2,-5.7,-21
O=C(COc1ccc2c3c(c(=O)oc2c1)CCCC3)N[C@@H](Cc1ccccc1)C(=O)O,2,/,4224,3,/,6.4,-14
CCn1c(CNc2cccc(Cl)c2)nnc1SCC(=O)OC1CCCCC1,5,2,5500,4,3,7.5,3
CCCCCOC(=O)NC1CCS(=O)(=O)C1 (configuration not stated),3,9,4414,/,-2,2.9,-6
O=C(Nc1ccnn1C1CCN(Cc2cccc(OCCO)c2)CC1)C1CCOC1 (configuration not stated),2,3,6539,-3,1,1.5,-11

# By substructure, those above containing a furan ring, fused or not
canonical_smiles,Sa ugtP lethal,Mtb hypoxia inh,Autofluor counter,BJeLR lethal,Mtb hypoxia inh growth,Sa RN4220 lethal,PrP 5UTR inh
Cc1cc(-c2n[nH]c(=S)n2N=Cc2ccc(C)o2)n[nH]1,-1,0,/,/,3,-3.0,/
COc1ccc(NC(=O)CN(C)C(=O)c2oc3c(ccc4ccccc43)c2C)cc1,2,7,3890,/,2,-5.7,-21

# (further entries)
canonical_smiles,Sa ugtP lethal,Mtb hypoxia inh,Autofluor counter,BJeLR lethal,Mtb hypoxia inh growth,Sa RN4220 lethal,PrP 5UTR inh
O=C(COc1ccc(Cl)cc1Cl)NCc1ccncc1,-1,9,19178*,1,2,8.9,7
Oc1c(Br)cccc1/C=N/c1ncn[nH]1,/,/,3927,-11,/,/,-3
Clc1ccc(-c2c[n+](Cc3ccc(Br)cc3)c3n2CCCCC3)cc1,-6,-2,6365,10,24,-4.2,-21
Cc1ccccc1C(=O)Nc1ccc(O)cc1C(=O)O,11,4,3278,7,8,6.6,-8
COc1ccc(C(CNC(=O)COc2c(C)cc(C)cc2C)N2CCOCC2)cc1 (configuration not stated),-4,-6,?,/,-1,0.8,-8
O=C(c1ccc(F)cc1Cl)N1CCN(S(=O)(=O)c2cccs2)CC1,/,/,5335,1,/,/,-14
Cn1nc(NC(=O)C2CCC2C(=O)O)c2c(F)cccc21 (configuration not stated),-3,4,4611,0,3,4.8,6
O=C(NCc1ccco1)c1ccc(Cl)c(S(=O)(=O)Nc2ccccc2)c1,29,8,3473,-1,-10,-3.3,-8
COc1cc2c(cc1OC)C(c1cc(OC)c(OC)c(OC)c1)C1(O)C(=O)OCC1(O)C2 (configuration not stated),-1,19,3391,/,10,5.0,-13
Cc1cccc2cc(-c3nc4ccc(C(=O)O)cc4[nH]3)c(=O)oc12,6,1,3479,20,-3,4.3,-74

# A draw from above in order of length of the SMILES, rising:
canonical_smiles,Sa ugtP lethal,Mtb hypoxia inh,Autofluor counter,BJeLR lethal,Mtb hypoxia inh growth,Sa RN4220 lethal,PrP 5UTR inh
Oc1c(Br)cccc1/C=N/c1ncn[nH]1,/,/,3927,-11,/,/,-3
Cn1nc(NC(=O)C2CCC2C(=O)O)c2c(F)cccc21 (configuration not stated),-3,4,4611,0,3,4.8,6
O=C(NCc1ccco1)c1ccc(Cl)c(S(=O)(=O)Nc2ccccc2)c1,29,8,3473,-1,-10,-3.3,-8

# Following part
canonical_smiles,Sa ugtP lethal,Mtb hypoxia inh,Autofluor counter,BJeLR lethal,Mtb hypoxia inh growth,Sa RN4220 lethal,PrP 5UTR inh
COc1ccc(/C=N\Nc2ccc([N+](=O)[O-])cc2[N+](=O)[O-])c(C(=O)O)c1OC,/,/,4545,1,/,/,-5
COc1cccc(CN2CC(C(=O)N(C)CC3CCOCC3)CCC2=O)c1 (configuration not stated),11,4,/,-1,-29,4.2,-16
COC(=O)C1=C(c2ccc3ccccc3c2)C[C@@H]2CC[C@H]1N2C(=O)N1CCC(C)CC1,-12,1,3403,/,8,-10,3
CCCCCCSc1ncc(C#N)c(N)n1,-6,6,3193,6,7,4.2,-8
N#CCC(=O)Nc1ccc(C(=O)NCc2cccc(Cl)c2)cc1,4,6,5452,7,-2,3.8,-8
Cn1cc(C2N3CC4(C)CN2CC(C)(C3)C4=O)c2ccccc21 (configuration not stated),9,4,5188,/,5,0.9,-18
NC(=O)[C@@H]1CCCCNc2c(I)cc([N+](=O)[O-])cc2C(=O)N[C@@H](CCC(=O)O)C(=O)N[C@@H](CO)C(=O)N1,/,/,4090,15,/,/,-6
Cc1cccc(C(=O)NNC(=O)C2CC2)c1,4,9,6448,2,13,2.8,-12
COc1ccc2cc(CN(CC3CCCO3)C(=S)NCc3ccco3)c(=O)[nH]c2c1 (configuration not stated),-5,-4,4486,4,12,-2.7,-9
Cc1cccc(NC(=O)CN2C(=O)N/C(=C\c3cccn3-c3cccc(C(=O)O)c3)C2=O)c1,15,7,3324,1,2,5.9,-19
COc1ccc2c(c1)C1(Nc3ccccc3-c3nc4ccccc4n31)C(=O)N2 (configuration not stated),-13,7,8649,-2,8,-11,-32
O=C(CCNS(=O)(=O)c1cccs1)NCc1cccs1,-6,-3,9826,-2,5,-0.7,-10
COc1ccc(Br)c(C(=O)NC(C)(C)CO)c1,11,9,6083,-6,-10,1.3,-9
O=C(Nc1ccc2oc(-c3ccccc3)nc2c1)c1ccccc1F,3,/,4286,-1,/,-0.3,-132
Cc1cc(C)n(-c2ccc(C(=O)NCCCN3CCOCC3)cc2)n1,2,2,4115,-4,2,11,-20
Cn1c(=O)oc2cc(S(=O)(=O)CCC(=O)NCCc3ccccc3)ccc21,3,11,6178,-2,8,2.4,-7
COc1ccc(O)c(C(=O)c2cnn(C(=O)c3cc(C)oc3C)c2)c1,8,/,4611,2,/,1.4,-15
O=C(NNC(=O)c1ccncc1)c1ccccc1,4,1,3759,14,-1,0.3,-15
O=c1[nH]c(/C=C\c2cccc(O)c2)nc(O)c1[N+](=O)[O-],1,0,3307,6,1,3.5,-6
O=C(CN1c2ccccc2S(=O)(=O)c2ccccc21)NCc1ccccc1,0,9,4746,10,-4,0.4,-12
CC(NC(=O)c1cc2ccccc2o1)c1ccccc1 (configuration not stated),-1,/,4304,-5,/,7.8,-23
CC(Cc1ccccc1)=NNC(=O)C1CCCCC1,0,10,/,/,5,2.4,/
Cc1ccc(N(C(=O)c2snc(C(N)=O)c2N)C(C(=O)NC2CCCC2)c2ccncc2)cc1 (configuration not stated),3,-11,5761,5,3,1.2,3
CC(=O)Nc1sc(C)c(C)c1C(=O)OCC(=O)Nc1cc(S(C)(=O)=O)ccc1Cl,-10,-1,5868,0,3,-2.3,-11
C=CCSC1=C(C#N)C(c2ccccc2OCC)CC(=O)N1 (configuration not stated),-13,1,10530,3,6,7.1,23
O=C(N[C@@H](Cc1ccccc1)C(=O)NCCc1c[nH]c2ccccc12)c1ccco1,1,-2,3241,7,0,4.1,-2
COc1ccc(N(C(=O)c2ccco2)C(C(=O)NC2CCCC2)c2ccco2)cc1OC (configuration not stated),10,-5,3744,0,5,-1.1,-12
Cc1ccc(NC(=S)N(N)CCO)cc1,1,5,4137,0,-1,-0.2,41
COc1ccc(C)cc1NC(=O)C1CCN(S(=O)(=O)c2ccccc2)CC1,11,-6,5876,5,-7,2.4,-6
COc1ccc(CCN=C(N)NS(=O)(=O)c2cc(F)ccc2F)cc1,14,-5,5811,-5,-9,4.9,-13
Cc1cc(NC(=O)C2CC2)n(-c2nc3ccccc3s2)n1,-7,-5,3683,-6,14,11,-11
NC(=O)c1nn2c(C(F)(F)F)cc(-c3ccccc3)nc2c1Br,7,9,3301,-1,-2,2.1,-15
O=C(NNc1nc2cc3c(cc2s1)OCO3)c1cccc(F)c1,-5,0,5334,6,3,5.5,-22
COc1cc(NC(=O)c2ccc3snnc3c2)cc(OC)c1,1,5,3423,-1,8,1.7,-18
Cc1noc(C)c1N=Nc1ccccc1C(=O)O,-4,9,5005,1,-1,0.8,-24
O=C(O)CC(NC(=O)c1ccco1)c1ccco1 (configuration not stated),5,8,5062,-3,12,4.3,-13
Cc1cc(NC(=O)COc2ccc(C)c(C)c2)no1,5,9,3325,1,5,-0.7,-31
Cn1c(CN2CCOCC2)nc2cc(NC(=O)c3ccc(Cl)cc3)ccc21,-2,0,4448,12,3,0.2,-24
CCn1c(SC/C=C/c2ccccc2)nnc1-c1cnccn1,5,14,21032*,1,15,8.0,-8
COC(=O)C1=NN(c2ccccc2)C2C(=O)N(c3ccccc3OC)C(=O)C12 (configuration not stated),-2,-2,8842,2,7,-3.3,-19
CCOc1ccc(/C=N/n2c(COc3ccccc3)n[nH]c2=S)cc1OC,/,/,3704,1,/,/,-19
CN1CCCN(C(=O)COc2cccc(C(F)(F)F)c2)CC1,-1,3,4871,-1,7,-2.6,-17
Cc1ccc(OCC(=O)N2CCN(S(=O)(=O)c3ccc(Cl)s3)CC2)cc1C,-8,5,7005,/,2,3.0,-6
Cc1nc2sc3c(c2c(=N)n1N)CC(C)(C)OC3,0,10,10525,-3,4,2.8,-27
CCCN1CCCC(c2cccc(O)c2)C1 (configuration not stated),8&-1,3&2,/,/,3&3,7.3&6.3,/
CC(NC(=O)c1ccco1)C12CC3CC(CC(C3)C1)C2 (configuration not stated),5,/,8556,/,/,3.2,-8
Cc1ccc(-n2nnnc2SCC(=O)N2c3ccccc3NC(=O)C2(C)C)cc1,-5,2,9165,4,12,0.4,-13
Cc1ccccc1N1CC(C(=O)N2CC(C)OC(C)C2)CC1=O (configuration not stated),10,1,3023,2,-7,1.9,-26
COc1ccc(C)cc1NC(=O)c1cc(S(=O)(=O)N2CCCC2)cn1C,-5,2,4359,-5,6,3.0,-18
CC1CCCCN1C(=O)CSc1nnc2c(n1)[nH]c1ccc(F)cc12 (configuration not stated),-2,-14,3684,-2,-5,6.7,9
COc1ccc(C=NN=C2SCC(=O)N2Cc2ccccc2)cc1,27,14,/,/,9,1.2,/
COc1ccc(/C=C(\NC(=O)c2ccc(Cl)cc2)C(=O)NCCCn2ccnc2)cc1OC,-4,-14,3866,-8,1,-2.2,0
Cc1nn(CC(C)C(=O)N2CCN(S(=O)(=O)c3ccc(Cl)cc3)CC2)c(C)c1C (configuration not stated),-1,-7,5923,-2,-6,3.2,-12

# Hits appear at their usual frequency. Share with any hit: about 4.1%.
